# Screening results deposited in PubChem by National Center for Advancing Translational Sciences (NCATS).
# HSD17B inhib = blocks hydroxysteroid 17-beta dehydrogenase activity; Potency, µM (top dose mostly 57.1 µM), without a hit: at the top dose activity change, negative = inhibition, actives largely listed as inhibitors; recombinant HSD17B10, NADH fluorescence kinetic; many of its hits are not listed in these tables; hit rate 7.6% among 75,000; AID 893; active means well fitted inhibition curve with a large enough effect; inconclusive means small, poorly fitted or top-dose-only effect; inactive means no such curve, though single readings can be large or run the other way;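 further: the protocol describes HADH2 (HSD17B10) and not the HSD17B4 of the title; nearly all actives have a fitted effect of over 70% in size; most hits overshoot -100% by far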
#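 His-tagged E. coli-expressed HADH2 at 20 nM in 100 mM Tris-HCl pH 9.0 with 0.01 % Tween-20, preincubated 15 min with compound at room temperature. Reaction with 1 mM NAD+ and 90 uM beta-hydroxybutyryl coenzyme A; NADH fluorescence (360/450 nm) read kinetically over 4 min, last minus first point.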
# Starred values were filed as active, the others as inactive; i = inactive; u = inconclusive; & = joins results of further samples; [ ] = dose if it differs, or a comment. On the % scale 0 is the no-effect control and ±100 the full control effect; potency means the concentration at half of the fitted maximal effect.
SMILES,HSD17B inhib
COC(=O)[C@]1(C)CCC[C@]2(C)c3ccc(C(C)C)cc3C(=O)CC12 (stereo partly specified),-6.1%
CN(C(=O)C12CC3CC(CC(C3)C1)C2)C1(C)CCS(=O)(=O)C1 (stereo unspecified),7.4%
O=C(NCC1CCCO1)C1CCCCN1S(=O)(=O)c1ccc(F)cc1 (stereo unspecified),0.3%
COC(=O)CSc1ccccc1C(=O)OC,i
COc1ccccc1CNC(=O)C1CCC(CNc2c(N3CCOCC3)c(=O)c2=O)CC1 (stereo unspecified),-0.8%
COc1ccccc1-c1nc(C#N)c(N2CCC(Cc3ccccc3)CC2)o1,31.6µM*
CCCNS(=O)(=O)c1ccc(NC(=O)c2ccccn2)cc1,4.3%
CCn1c(SCC(=O)Nc2sc(C)c(C)c2C#N)nnc1C(C)C,-3.3%
Cc1ccccc1NC(=O)NCCCN1CCN(C2CCCCC2)CC1,4.9%
CCOC(=O)CCc1nn(C)c(=O)c2ccccc12,2.3%
COc1ccc(-c2nc(-c3ccc(Br)cc3)no2)c(OC)c1,-14.6%
COc1ccccc1CNC(=O)c1oc2ccc(S(=O)(=O)N3CCCC3)cc2c1C,-5.3%
CCCC(=O)N1CCN(c2ccc(C(=O)c3ccc(OC)c(Br)c3)cc2F)CC1,5.2%
CN(C)C(=O)c1ccc(-c2nc(Nc3ccncc3)c3ccccc3n2)cc1,u
C=CCN=C(NC#N)SCc1ccccc1Cl,-3.5%
Cn1c(Cn2c(=O)sc3ccccc32)nnc1SCC(N)=O,14.6%
C=CCN(c1ccc(C(N)=O)cc1)S(C)(=O)=O,-0.7%
CCc1c(C)nc2ncnn2c1N1CCC(C(=O)Nc2ccccc2)CC1,-5.7%
C1=C(c2ccccc2)Nc2nnnn2C1,-16.5%
CCOc1ccc(Nc2cc(C)nc(-n3nc(C)cc3C)n2)cc1,-15.8%
Cc1nc(NC(=O)CSc2ccccc2N)sc1C,-4.7%
CN(C)CCCN1C(=O)C(=O)/C(=C(/O)c2ccc(OCc3ccccc3)cc2)C1c1cccnc1 (stereo unspecified),6.0%
O=C(NCc1ccc2c(c1)OCO2)c1ccc(COc2cccc(Cl)c2)o1,-5.8%
Cc1cc(C)c(C#N)c(SCC(=O)OC2CCCCC2)n1,202.6%[activator]
Cc1ccc(C(=O)c2ccccc2C(=O)O)c(O)c1,0.6%

# Next section:
SMILES,HSD17B inhib
CCCCCn1c(N2CCC(C(N)=O)CC2)nc2c1c(=O)[nH]c(=O)n2C,-5.9%
COC(=O)[C@@]1(Cc2ccc(F)cc2)[C@H]2c3cc(C(=O)N4CCCC4)n(CCc4ccccn4)c3C[C@H]2CN1C(=O)c1ccccc1,-18.0%
COc1cc(C2C(C(=O)c3cccs3)=C(O)C(=O)N2Cc2ccco2)cc(OC)c1OC (stereo unspecified),-1.2%
CCn1c(/C(C#N)=C(\O)CCc2ccccc2)nc2ccccc21,5.8%
C[C@@H](NC(=O)/C(C#N)=C/c1ccc(O)c(O)c1)c1ccccc1,u
CCCCn1c(SCC2CCCCO2)nc2cc(S(N)(=O)=O)ccc21 (stereo unspecified),-1.1%
N#CC1=C(SCc2ccccc2Cl)NC(=O)C(C(N)=O)C1 (stereo unspecified),15.2%
CCn1c(N2CCN(CC(=O)c3c(C)n(C)c4ccccc34)CC2)nc2c1c(=O)[nH]c(=O)n2C,3.3%
O=C1C2C3C=CC(C2C(=O)N1CN1CCOCC1)C1C2C(=O)N(CN4CCOCC4)C(=O)C2C31 (stereo unspecified),-6.1%[11.4 µM]
Cc1cc(C)c(NC(=O)CSc2nnc(-c3ccco3)n2N)c(C)c1,6.5%
O=C(c1ccco1)N1CCN(S(=O)(=O)c2ccc(S(=O)(=O)NC3CC3)cc2)CC1,2.0%
O=C(N1CCN(c2ccccc2)CC1)C(F)(F)C(F)(F)F,0.6%
Cc1cc(C(=O)CSc2nn(-c3ccccc3)c(=S)s2)c(C)n1Cc1ccco1,-19.3%
Cc1cc(S(=O)(=O)N2CCN(Cc3ccc4c(c3)OCO4)CC2)cc(C)c1N1CCCC1=O,9.9%
CCOC(=O)N1CCN(C(=O)c2nn(-c3cc(OC)cc(OC)c3)c(=O)c3ccccc23)CC1,-4.6%
O=C(Cc1cccs1)NCc1ccncc1,5.7%
COc1cccc(OC)c1OCCCOc1c(OC)cccc1OC,1.7%
COc1ccc2[nH]c3nc(SCc4nnc(-c5ccccc5)o4)nnc3c2c1,-4.7%
CCCCCCCC/C=C\CCCCCCCC(=O)N(CCO)CCO,u
NC(=O)CSc1nnc(-c2ccc(S(=O)(=O)N3CCCC3)cc2)n1Cc1ccco1,-13.1%
O=C1NC2(CCCc3ccccc32)C(=O)N1Cc1nnc(-c2ccccc2Br)o1 (stereo unspecified),-10.8%
O=C(c1cc2ccccc2oc1=O)N1CCSC1c1ccco1 (stereo unspecified),-4.2%
CC1(C)Oc2ccc(C(=O)N3CCOCC3)cc2N(CC(=O)Nc2ccccc2)C1=O,2.0%
COCCCn1c(Cc2ccccc2)nnc1SCC(=O)N1CCCCC1,-0.9%
O=C(NCCN1CCc2ccccc2C1)C1CCN(S(=O)(=O)N2CCC3(CC2)OCCO3)CC1,12.8%

# Carrying on:
SMILES,HSD17B inhib
COc1cccc(NC(=O)c2ncn[nH]2)c1,-23.8%
COc1ccccc1NC(=O)CSc1nc2ncccc2[nH]1,-4.4%
Cc1ccc(NC(=O)c2ocnc2C)cc1Cl,-12.8%
O=C(c1ccc(CS(=O)(=O)c2ccc(Br)cc2)o1)N1CCOCC1,3.6%
Clc1cccc(Cl)c1C(Nc1nncs1)Nc1nncs1,1.5%[11.4 µM]
Cn1cnnc1SCC(=O)c1cc2ccccc2oc1=O,20µM*
CCOc1ccccc1NC(=O)Cn1nnc(C(=O)NCc2ccco2)c1N,-4.3%
O=C(Nc1cccc(-c2nnn(CC(=O)N3CCc4ccccc4C3)n2)c1)C1CCC1,-7.3%
COc1cc(C(c2nnnn2C2CCCC2)N2CCc3ccccc3C2)ccc1O (stereo unspecified),-9.7%
O=C(OC(C(=O)NC1CCCC1)c1ccc(F)cc1)c1ccno1 (stereo unspecified),1.2%
CCOC(=O)c1ccc2[nH]c3c(c2c1)CCCCC3=O,u
COC(=O)c1ccccc1NC(=O)Cn1cnc2c1c(=O)n(C)c(=O)n2C,5.9%
CCn1c(SCC(=O)c2cc(C)n(-c3ccc(C(=O)OC)cc3)c2C)nnc1-c1cccnc1,3.7%
CCOc1ccc(Br)cc1S(=O)(=O)N1CC(C)OC(C)C1 (stereo unspecified),2.0%
[O-]/[N+](=N\O)c1ccccc1,-6.3%
O=C(NCCc1ccccn1)c1n[nH]c(=O)c2ccccc12,6.7%
COc1c(Cl)cc(Cl)cc1/C=N/n1cnnc1,u
C=CC(=O)CC,1.0%
COc1ccc(-c2noc(CCC(=O)NCc3cccnc3)n2)cc1OC,0.7%
CCC1CCCCN1S(=O)(=O)c1ccc(S(=O)(=O)N2CCN(S(=O)(=O)CC)CC2)cc1 (stereo unspecified),2.0%
CCCn1c(CN(C)Cc2ccccc2)nc2c1c(=O)n(C)c(=O)n2C,6.6%
C=CCc1ccc(OC(=O)c2ccccc2)c(OC)c1,-6.9%
O=C(NC(=O)c1ccccc1)OCC(F)(F)F,2.1%
COC(=O)CC1=C(C(=O)OC)C(c2cccs2)C(C#N)=C(N)O1 (stereo unspecified),0.8%
O=C(c1cc2nc(C3CC3)cc(C(F)F)n2n1)N1CCOCC1,-15.0%

# An excerpt of these results, tab-delimited.
canonical_smiles	HSD17B inhib
CN(C)CCCN1C(=O)C(=O)/C(=C(/O)c2ccc(OCc3ccccc3)cc2)C1c1cccnc1 (stereo unspecified)	6.0%
O=C(NCc1ccc2c(c1)OCO2)c1ccc(COc2cccc(Cl)c2)o1	-5.8%
Cc1cc(C)c(C#N)c(SCC(=O)OC2CCCCC2)n1	202.6%[activator]
Cc1ccc(C(=O)c2ccccc2C(=O)O)c(O)c1	0.6%

# Copied from the list:
# Value for O=C(c1cc2nc(C3CC3)cc(C(F)F)n2n1)N1CCOCC1 under HSD17B inhib: -15.0%
# Value for COc1ccccc1NC(=O)CSc1nc2ncccc2[nH]1 under HSD17B inhib: -4.4%

# Arranged by formula weight (low to high): some entries from above
SMILES,HSD17B inhib
O=C(Cc1cccs1)NCc1ccncc1,5.7%
CCOC(=O)CCc1nn(C)c(=O)c2ccccc12,2.3%
CCOC(=O)c1ccc2[nH]c3c(c2c1)CCCCC3=O,u
NC(=O)CSc1nnc(-c2ccc(S(=O)(=O)N3CCCC3)cc2)n1Cc1ccco1,-13.1%

# More compounds follow:
SMILES,HSD17B inhib
COc1ccccc1Cc1nc(-c2ccc(Br)o2)no1,-27.0%
CCOC(=O)c1c(C)nc(-c2ccccc2)nc1NC(=O)C(C)C,0.9%
CCCOC(=O)c1ccc(Oc2cn[nH]c2-c2ccc(OCC)cc2O)cc1,-19.5%
CCN(CC)C(=O)CSc1nnc(-c2cccnc2)n1CCc1ccccc1,8.6%
CCCSC1=C(C#N)C(c2ccc(Cl)cc2Cl)CC(=O)N1 (stereo unspecified),u
COC(=O)CSc1nnnn1-c1ccccc1,5.9%
O=C(OCc1c(Cl)cccc1Cl)c1cnccn1,1.5%
CN1C(C)(C)CC(NC(=O)CCC(=O)NC2CC(C)(C)N(C)C(C)(C)C2)CC1(C)C,2.3%
COc1ccccc1-n1c(SCC(=O)Nc2ccccc2F)nc2[nH]ncc2c1=O,-3.7%
O=C(c1ccncc1)N1CCC2(CCN(Cc3ccncc3)CC2)CC1,-6.4%
CCN(CC)CCOC(=O)C(c1ccccc1)C1CCCCC1 (stereo unspecified),2.0%
CC1CCc2nn(CC(=O)NCc3ccco3)cc2C1 (stereo unspecified),6.2%
COC(=O)c1ccccc1NC(=O)CNC(=O)c1ccco1,u
Cc1cccc(NC(=O)c2ccc(S(=O)(=O)N(C)C)cc2)c1,3.3%
Cc1onc(-c2ccccc2Cl)c1C(=O)Nc1cccc(-c2cn3cccnc3n2)c1,25.1µM*
COC(=O)CSc1nc2ccc(NC(C)=O)cc2s1,-13.7%
Cc1cc(NC(=O)C23CCC(C)(c4nc5cc(Cl)c(Cl)cc5nc42)C3(C)C)no1 (stereo unspecified),0.8%
COC(=O)c1ccc(CSc2nnc(SCc3ccc(C(=O)OC)o3)s2)o1,-19.8%
CC(=O)Nc1nonc1NC(=O)CSc1ncn[nH]1,8.3%
COc1ccc(C2/C(=C(\O)c3ccc4c(c3)OCCO4)C(=O)C(=O)N2CCCN(C)C)c(OC)c1 (stereo unspecified),-12.6%
CCCC(=O)Nc1ccc(NC(=O)c2ccccc2Cl)nc1,2.6%
NC1CONC1=O (stereo unspecified),-0.7%
COc1ccccc1C(=O)n1nc(-c2ccc(Cl)cc2)nc1N,31.9%[activator]
COCCNC(=O)c1cc2c(-c3ccccc3F)nn(C)c2s1,31.6µM*
Cc1cc(Cl)ccc1OCCCC(N)=O,-3.7%

# Next results:
SMILES,HSD17B inhib
Cc1nc2ccccc2c2oc(C(=O)NCc3ccc4c(c3)OCO4)cc12,-9.3%
O=C(NCc1ccccn1)C1CCN(S(=O)(=O)c2cccs2)CC1,8.9%
Cc1ccc(S(=O)(=O)NCc2cn3ccsc3n2)c(C)c1,1.3%
O=C(O)C1=CCCN(CCON=C(c2ccccc2)c2ccccc2)C1,14.6%&2.4%
C=CCOc1ccc(/C(O)=C2/C(=O)C(=O)N(CCN3CCOCC3)C2c2ccc(C)cc2)cc1 (stereo unspecified),-9.3%
CCN(CC)S(=O)(=O)c1cccc(-c2nnc(SCC#N)n2Cc2ccccc2)c1,-6.1%
Cn1nc(C(=O)N2CCN(S(=O)(=O)c3ccccc3)CC2)c2ccccc2c1=O,-1.6%
Cc1nc(N2CCN(Cc3ccccc3)CC2)[nH]c(=O)c1C,13.7%
COc1ccc(NC(=O)c2cc(OC)c(OC)c(OC)c2)cn1,4.5%
COc1ccc(C(=O)N(CN2CCCC2=O)c2ccccc2OC)cc1OC,13.6%
COc1ccc(-c2cc(C(=O)N3CC4(C)CC3CC(C)(C)C4)no2)cc1OC (stereo unspecified),4.3%
CCC1(C)CC(c2csc(N)n2)CCO1 (stereo unspecified),-0.8%
O=c1c(O)cccc2cc(O)c(O)c(O)c12,u
CCNC(=O)NCCc1c[nH]c2ccc(Cl)cc12,11.8%
CCc1ccc(C(=O)NCc2cccs2)s1,1.8%
CCc1nnc(NC(=O)CSc2nnc(-c3ccoc3C)n2-c2ccc(C)cc2)s1,-6.9%
CCOc1ccc(CCNC(=O)C2CCN(S(=O)(=O)N3CCOCC3)CC2)cc1OCC,-0.9%
Cn1c(SCc2nc3ccccc3s2)nnc1-c1cccs1,-11.0%
CCC(C)NC(=O)CN1C(=O)CC(C)(C)S(=O)(=O)c2ccccc21 (stereo unspecified),-0.1%
CC(=C1C(=O)c2ccccc2C1=O)N1CCc2ccccc2C1,-2.2%
CSCC[C@H](NC(=O)OC(C)(C)C)c1nnc(SCc2ccccc2)o1,-1.3%
CN(Cc1ccccc1)c1nc2c(c(=O)[nH]c(=O)n2C)n1CCCSc1ncccn1,3.4%
O=C(O)c1cccc(S(=O)(=O)NCCO)c1,10.0%[11.4 µM]
O=C(c1cccs1)c1coc2ccc(O)c(CN3CCOCC3)c12,-1.1%
O=C1c2ccccc2C(O)(O)[C@@]1(O)[C@]1(O)C(=O)c2ccccc2C1(O)O,5.5%[11.4 µM]
COc1ccc(C2C3=C(Nc4ncnn42)c2ccccc2CCC3)cc1 (stereo unspecified),25.1µM*

# A second format for four compounds above.
SMILES	HSD17B inhib
Clc1cccc(Cl)c1C(Nc1nncs1)Nc1nncs1	1.5%[11.4 µM]
Cn1cnnc1SCC(=O)c1cc2ccccc2oc1=O	20µM*
CCOc1ccccc1NC(=O)Cn1nnc(C(=O)NCc2ccco2)c1N	-4.3%
O=C(Nc1cccc(-c2nnn(CC(=O)N3CCc4ccccc4C3)n2)c1)C1CCC1	-7.3%

# This is a subset (hit frequency here may not be typical).
